# Vaccinia mCherry: qHTS for Stage-Specific Inhibitors of Vaccinia Orthopoxvirus: mCherry Reporter Primary qHTS | Vaccinia virus mCherry reporter infection, fluorescence; about a quarter of the inactives have no number | Potency, µM (series often up to 36.5 µM), inactives show at the highest dose activity change, negative = inhibition, usual class: inhibitors | 0.63% of 310,000 active; active = well fitted inhibition curve with a large enough effect; inconclusive = small, poorly fitted or top-dose-only effect; inactive = no such curve, though single readings can be large or run the other way; tested in A549 cells; note: nearly all actives have a fitted effect of over 35% in size; inactives centre near -10
# VACV Venus inh: qHTS for Stage-Specific Inhibitors of Vaccinia Orthopoxvirus: Venus Reporter Primary qHTS. AID 720580, 2013. Vaccinia virus Venus reporter expression, fluorescence. 0.46% of 330,000 active. Potency, µM (highest dose often 36.5 µM), without a hit: at the highest dose activity change, negative = inhibition, most hits filed as inhibitors; active means well fitted inhibition curve with a large enough effect; inconclusive means small, poorly fitted or top-dose-only effect; inactive means no such curve, though single readings can be large or run the other way; tested in A549 cells; note: nearly all actives have a fitted effect of over 30% in size; inactives centre near -10
# An asterisk follows results filed as active; i = inactive; ? = inconclusive; . = not tested or not shown; [ ] = dose if it differs, or a comment. % is set by controls: 0 for no effect and ±100 for the full control effect; potency is the fitted concentration of half-maximal effect.
smiles	Vaccinia mCherry	VACV Venus inh
Cc1ccc(C)c(N2CCN(C(=O)CCc3nc(-c4cccc(Cl)c4)no3)CC2)c1	-10%	-2%
Cc1ccc(C(=O)c2oc3ccccc3c2NC(=O)c2cc(-c3ccccc3)on2)cc1F	-8%	-3%
COc1ccc(C(=O)NC(=O)COC(=O)C2COc3ccccc3O2)cc1 (stereo not given)	-15%	-1%
CC(C)Nc1ccc(C(CC(N)=O)NC(=O)c2ccc(Br)cc2)cc1[N+](=O)[O-] (stereo not given)	i	-22%
COc1ccc(SCC(=O)Nc2ccc(N3CCN(C)CC3)c(F)c2)cc1	-28%	-20%
COc1ccc(C(=O)O)cc1S(=O)(=O)NC(C)C12CC3CC(CC(C3)C1)C2 (stereo not given)	-11%	-7%
O=S1(=O)CCN(Cc2ccccn2)CC1	-13%	-3%
CCOc1ccc(S(=O)(=O)N2CCOCC2)cc1NC(=O)C1=COCCO1	-17%	-20%
Cc1ccc([C@@H]2C[C@H]3[C@@H](CN2S(=O)(=O)c2ccc(C)cc2)C(=O)C[C@@H](c2ccccc2)N3S(=O)(=O)c2ccc(C)cc2)cc1	-3%	-9%
Cc1c(Cl)cccc1NC(=O)CCS(=O)(=O)c1ccc2c(c1)oc(=O)n2C	-4%	0%
CCOc1ccc(N2CC(NC(=O)c3ccc4c(c3)OCO4)CC2=O)cc1 (stereo not given)	3%	-6%
CC1(C)CC(=O)N(CC(=O)NCc2ccc(F)cc2)c2ccccc2S1(=O)=O	-6%	-4%
COc1ccc(S(=O)(=O)c2c[nH]c(=S)[nH]c2=O)cc1Cl	i	-7%
Cc1cccc(N2CCN(C(=O)CCC(=O)N3CCOc4ccc(Cl)cc43)CC2C)c1 (stereo not given)	?	-29%
O=C(NCCCN1CCCC1=O)c1ccc2c(=O)n(-c3ccccc3F)c(=S)[nH]c2c1	-5%	4%
CSc1ccc(S(=O)(=O)NCC(=O)OCC(=O)N2CC(C)CC(C)C2)cc1[N+](=O)[O-] (stereo not given)	i	-14%
CCN(C[C@H]1N[C@@](Cc2ccccc2)(C(=O)OC)[C@H]2C(=O)N(C)C(=O)[C@@H]12)C(=O)COC	i	-14%
CCCCNC(=O)c1ccc2c(SCC(=O)O)c3c(nc2c1)CCCC3	-10%	0%
O=C(CN1CCN(Cc2ccccc2)CC1)Nc1ccc([N+](=O)[O-])cc1C(=O)Nc1ccccc1F	-22%	-29%
Cc1ccccc1-n1nnnc1SC(C)C(=O)NC1CCCc2ccccc21 (stereo not given)	-10%	-25%

# (listing goes on)
smiles	Vaccinia mCherry	VACV Venus inh
O=[N+]([O-])c1cccc(COc2cccc(CN3CCCCC3)c2)c1	?	9%
Cc1ccc(S(=O)(=O)N(C)c2ccc(C(=O)Nc3cccnc3)cc2)cc1	-14%	-22%
Cc1ccc(S(=O)(=O)N(C)Cc2ccc(C(=O)N/N=C3\CC(=O)CC(C)(C)C3)cc2)cc1	-17%	-16%
NS(=O)(=O)c1ccc(NC(=O)CN2CCN(S(=O)(=O)/C=C/c3ccccc3)CC2)cc1	-12%	-17%
O=C(Nc1ccc(Cl)cc1C(=O)c1ccccn1)c1ccccc1	i	-2%
Cc1ccc(C(=O)/C=C/c2ccc(-c3ccccc3[N+](=O)[O-])o2)cc1	-10%	8%
Cc1nc2c(c(=O)n1CCC1=CCCCC1)c1nc3ccccc3nc1n2/N=C/c1ccco1	.	-2%
CCCN(CC(=O)Nc1ccccc1C)C(=O)CC(NC(=O)c1ccccc1)c1ccccc1 (stereo not given)	i	-8%
Cc1ccc(NC(=O)C2CCN(S(=O)(=O)c3ccc4c(c3)CCCN4C(=O)C3CCC3)CC2)cc1	-14%	-16%
CCOC(=O)Cn1ncn(-c2ccc(OC(F)(F)F)cc2)c1=O	-6%	-12%
C/C(=N\NC(=O)c1c(C)nc2ccccn12)c1ccccc1F	-13%	-13%
CC1(c2nc3ccccc3[nH]2)CCC(=O)N1Cc1ccc(F)cc1 (stereo not given)	44%[activator]	5%
COc1ccc(/C=C/C=C2C(=O)NC(=S)NC2=O)cc1	-12%	2%
CCCCn1c(N)c(N(CC(C)C)C(=O)c2oc3ccc(OC)cc3c2C)c(=O)[nH]c1=O	-2%	-11%
CC(C)CN1CC(Br)C(=O)NC1=O (stereo not given)	-10%	0%
Cc1ccccc1OCCn1c(=S)[nH]c2ccccc21	?	-8%
Cc1cccc(NC(=O)c2sc3nc4c(c(-c5cccs5)c3c2N)CN(C)CC4)c1	-10%	-13%
Cc1cc(NC(=O)CN2CCC(C)CC2)nc2c1c(=O)oc1ccccc12	9%	10%
Nn1c(SCc2cccc(Oc3ccccc3)c2)nnc1C(F)(F)F	i	-13%
Cn1c(CN2CCCCC2)nc2cc(NS(=O)(=O)c3ccc(F)cc3)ccc21	i	-1%

# (continued)
smiles	Vaccinia mCherry	VACV Venus inh
COc1cccc(OC)c1C(=O)NCCc1sc(-c2cccc(F)c2)nc1C	7%	-5%
Cn1ccc2c(-c3ccc(F)nc3)cc3c(c21)C1CCC3O1 (stereo not given)	i	3%
O=C(CCNc1ccc(F)cc1)c1cc2ccccc2o1	?	-28%
COc1ccc(CCn2c(-c3ccc(Cl)cc3)n[nH]c2=S)cc1OC	-14%	2%
CC(C)CNC(=O)COC(=O)c1ccc(F)cc1Cl	7%	3%
O=C(O)c1cccc(S(=O)(=O)Nc2ccc3oc(=O)sc3c2)c1	-14%[1.46 µM]	-16%
Cc1ccc(CNC(=O)CN2C(=O)C3(SCC(=O)N3c3ccc(F)cc3)c3ccccc32)cc1 (stereo not given)	-3%	-4%
O=C(Nc1nc(=S)ss1)c1c(F)cccc1F	.	28%
CCCN(Cc1ccccc1)C(=S)Nc1ccc(OC(F)F)cc1	-20%	-10%
CCOC(=O)c1c(-c2ccc(C)cc2)csc1NC(=O)c1cc(-c2ccc(Cl)cc2)on1	i	-9%
CCOc1ccc(CC(=O)Nc2ccc(S(=O)(=O)N3CCCC3)cc2)cc1	-4%	-19%
COc1ccc(-c2n[nH]c(=S)n2-c2ccc(C)cc2)cc1OC	?	?
COCc1[nH]c(=S)c(C#N)cc1C(=O)OC	-12%[7.34 µM]	1%[7.34 µM]
O=C(NNC(=S)Nc1ccc(Br)cc1)c1ccc(N2CCOCC2)c([N+](=O)[O-])c1	?	-19%
O=C(COc1ccc(Cl)cc1)Nc1ccccc1C(=O)NCc1cccnc1	-8%	-18%
NS(=O)(=O)c1ccc(CCNC(=O)CC(c2ccccc2)c2ccccc2)cc1	-7%	-28%
N#Cc1ccccc1NC(=O)CSc1n[nH]c(-c2ccco2)n1	-15%	0%
O=C(Cn1nnc2ccccc2c1=O)NCC1CCC(C(=O)O)CC1 (stereo not given)	-4%	0%
O=C(CSc1nnc(NC(=O)c2ccco2)s1)NCc1ccc2c(c1)OCO2	i	-8%
Cc1ccc(-c2csc3ncnc(N4CCc5ccccc5C4)c23)cc1	-11%	-4%

# More entries follow.
smiles	Vaccinia mCherry	VACV Venus inh
CN(C(=O)c1cccc(NC(=O)Cc2ccc(NC(=O)C3CCCN(C(=O)c4ccccc4)C3)cc2)c1)C1CCCCC1 (stereo not given)	0%	-5%
COc1ccccc1NS(=O)(=O)c1cccc(C(=O)NN=C2CCCCCC2)c1	i	-12%
Cc1ccc(S(=O)(=O)NC(=O)c2ccc(Br)o2)cc1	i	-4%
COc1cc(NC(=O)C2CCN(C(=O)c3sc4nc[nH]c(=O)c4c3C)CC2)cc(OC)c1OC	-17%	-6%
COc1ccc(C(=O)Nc2ccccc2C(=O)NCCCn2ccnc2)cc1	.	-19%
CCOC(=O)C1C(=O)NC(C(=O)OCC)(C(=O)OCC)C1CC (stereo not given)	-1%	3%
Cc1cc(NC(=O)CSc2nnc3c(C)cc4c(C)ccc(C)c4n23)no1	?	-28%
COc1ccccc1NC(=O)c1c(C)oc2c1CCCC2	-19%	-5%
Cc1cc(Nc2ccc(Br)cc2)nc(C)n1	-14%	-13%
Cc1sc2nc(CSC(C)C(=O)N(C)CC(=O)Nc3ccccc3C(F)(F)F)[nH]c(=O)c2c1C (stereo not given)	-7%	-22%
COC(=O)Cc1cc(=O)[nH]c(Nc2nc3ccccc3o2)n1	-9%	2%
Cc1ccc(NC(=O)c2cccn2-c2nnc(N3CCCCC3)s2)cc1Cl	-21%	-18%
CCCCCOc1ccc(NC(=O)Cn2c(-c3nonc3N)nc3ccccc32)cc1	-2%	-3%
CCOC(=O)C(=O)c1cn(C2OCC(OC(C)=O)C(OC(C)=O)C2OC(C)=O)c2ccccc12 (stereo not given)	-7%	-7%
CCOc1ccc(S(=O)(=O)N2CCC(C(=O)NCc3cccnc3)CC2)cc1Cl	-9%	-11%
O=C1CC[C@H](C(=O)O)N1	-8%	-4%
CCOc1ccc(-c2nc(Cn3c(=O)cc(C)c4c(C)nn(-c5ccc(C)cc5)c43)c(C)o2)cc1	-6%	10%
O=C(CCNC(=O)c1ccco1)Nc1ccccc1OC(F)F	i	4%
Cc1cccc(NC(=O)CSc2nc3ccccc3nc2N2CCCC2)c1	-26%	8%
COCCNC(=O)CN1CCN(Cc2cccc(Cl)c2)C1=O	i	-5%

# The results go on:
smiles	Vaccinia mCherry	VACV Venus inh
COc1ccc2c(c1)c1c(c(=O)n(-c3ccccc3C)c(=O)n1C)n2C	-5%	5%
CCOC(=O)CSc1nnc(C)c(C)n1	i	-12%
CC1=C(C(=O)Nc2cccc(C(F)(F)F)c2)C2(CCCCC2)OC1=O	-4%	-7%
CC(C)C(C(=O)O)N1C(=O)/C(=C/c2cccn2C)SC1=S (stereo not given)	i	-10%
Cc1ccc(NS(=O)(=O)c2cc(NC(=O)c3ccc4c(c3)NC(=O)CS4)ccc2C)c(C)c1	i	-12%
Cn1c(N)c(C(=O)COC(=O)Cc2ccccc2)c(=O)n(C)c1=O	i	1%
O=C(NC1CCCCCC1)c1ccc(Cl)c(S(=O)(=O)N2CCOCC2)c1	16%	2%
CCc1ccc(OCC(=O)NCc2ccco2)c(Br)c1	-25%	-15%
CCCCNC(=O)c1onc(CSc2ccccc2C)c1C(=O)O	i	-13%
CCC(C)(C)c1ccc(OCC(=O)N(C)C)c(C(C)(C)CC)c1	-11%	-15%
Cc1cc(C)cc(S(=O)(=O)c2cn(C)c3cc(N4CCCC4)c(F)cc3c2=O)c1	0%	-3%
Cc1c(OCC(=O)NCCN2CCOCC2)ccc2c(-c3ccccc3)cc(=O)oc12	-14%	-20%
N#Cc1c(N)oc(-c2ccc3c(c2)OCO3)c1-c1ccc2c(c1)OCO2	-8%	7%
CCOC(=O)c1oc2nc(C(C)C)c3c(c2c1N)CC(C)(C)OC3	-15%	-14%
C=CCn1c(=O)c2ccccc2n2c(SCC(=O)Nc3sc(C)c(CC)c3C(=O)OCC)nnc12	?	-2%
Cc1noc2ncnc(N3CCN(c4cccc(C(F)(F)F)c4)CC3)c12	-16%[7.34 µM]	-20%[7.34 µM]
CCOC(=O)c1c(NC(=O)COC(=O)c2ccccn2)sc2c1CCC2	-26%	-15%
CSc1nnc(CCNC(=O)c2ccc(-c3cccc(F)c3)cc2)n1-c1ccc(F)cc1	-16%	-4%
O=C(O)c1ccc(CSc2nc3cccnc3n2Cc2cccc(F)c2)cc1	-7%	-9%
CC(C)c1ccc(S(=O)(=O)c2cnc(SCC(=O)Nc3cccc(C(F)(F)F)c3)nc2N)cc1	3%	-8%

# Carrying on.
smiles	Vaccinia mCherry	VACV Venus inh
CCOC(=O)N1CCN(C(=O)C[C@@H]2C[C@@]3(C(=O)OCC)CCCC=C3N(CCC3=CCCCC3)C2=O)CC1	-23%	?
CN(C1CCCCC1)S(=O)(=O)c1ccc2c(c1)c(=O)c(C(=O)N1CCc3ccccc3C1)cn2C	i	0%
COc1ccc(OC)c(NC(=O)CSc2cn(CC(=O)N3CCCCCC3)c3ccccc23)c1	-16%	-17%
O=C1CC(c2ccccc2)C(c2ccccc2)=NN1 (stereo not given)	i	-7%
C=CCn1c(=N)n(CC(=O)c2ccc(OC)cc2)c2ccccc21	-25%	-13%
Cc1scc(C(=O)O)c1-c1c(C(=O)O)csc1C	-17%	-9%
CCN(CC)C(=O)Oc1ccc2ccccc2c1Br	-3%	9%
CCCCN1CCS(=O)(=O)N(Cc2ccccc2Br)CC(C(=O)OC)C1 (stereo not given)	?	?
CC(=O)c1ccc(NC(=O)CSc2nnc(-c3ccncc3)n2-c2ccccc2)cc1	16%	10%
COc1cc(C(O)c2nc(/C=C/c3ccc(C(F)(F)F)cc3)cs2)ccc1F (stereo not given)	16%	-16%
Cc1cccc(N2CCN(C(=O)c3cccn3-c3nnc(N4CCCCC4)s3)CC2)c1C	-18%	-8%

# Fetched by compound from the entries so far, four records:
smiles	Vaccinia mCherry	VACV Venus inh
CC(=O)c1ccc(NC(=O)CSc2nnc(-c3ccncc3)n2-c2ccccc2)cc1	16%	10%
CCOC(=O)N1CCN(C(=O)C[C@@H]2C[C@@]3(C(=O)OCC)CCCC=C3N(CCC3=CCCCC3)C2=O)CC1	-23%	?
Cc1cccc(N2CCN(C(=O)c3cccn3-c3nnc(N4CCCCC4)s3)CC2)c1C	-18%	-8%
CCN(CC)C(=O)Oc1ccc2ccccc2c1Br	-3%	9%

# Rows were taken by chance. About 0.87% of those tested had a hit in this group.
